INS promoter inh – inhibitors of insulin promoter-driven GFP, primary screen, imaging, TRM-6 cells (human fetal islet line), eGFP reporter, cell count | reporter expression induced with tamoxifen | inhibition, % at 2 µM | 130,000 tested, 0.9% active | AID 1273, 2008;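 active = inhibition above the mean plus 3 SD, with well images judged a real hit on visual review, cut at about 60% in these data, passing the limit was not always enough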
PKD1 kinase inh – inhibitors of human PKD1 kinase, biochemical, fluorescence polarization; PKD1 kinase fluorescence polarization assay; 200,000 tested, 0.056% active; AID 797, 2007; Serine/threonine-protein kinase D1 (Homo sapiens), Q15139; inhibition, %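 (about 10 µM by stock and volumes)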;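 active = inhibition of 50% or more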;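 also: controls were vehicle for no effect and a reference inhibitor for full effect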
GALR2 ag – GALR2 receptor agonists, primary screen, cell-based; Galanin receptor type 2 (Homo sapiens), O43603; GALR2-expressing cells, agonist activation read-out; activation, %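 (tested at 5 µM)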; 140,000 tested, 0.48% active;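 active = above mean plus 3 SD of all compounds, about 5% in these data, not always enough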;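 also: 0% = vehicle buffer wells and 100% = reference agonist at full effect; tested in CHO reporter cells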
Target sequence (O43603 whole entry, looked up): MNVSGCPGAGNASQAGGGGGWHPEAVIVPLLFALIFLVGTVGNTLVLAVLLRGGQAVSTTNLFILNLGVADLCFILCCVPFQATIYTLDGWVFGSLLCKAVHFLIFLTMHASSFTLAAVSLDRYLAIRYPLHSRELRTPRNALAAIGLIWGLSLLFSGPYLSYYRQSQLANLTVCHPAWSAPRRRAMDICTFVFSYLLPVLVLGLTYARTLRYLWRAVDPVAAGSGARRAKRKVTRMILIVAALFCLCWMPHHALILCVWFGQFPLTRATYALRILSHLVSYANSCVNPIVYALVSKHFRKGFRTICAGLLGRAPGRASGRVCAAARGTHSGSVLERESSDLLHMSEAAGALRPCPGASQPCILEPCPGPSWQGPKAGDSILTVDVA
HSV replic up – enhancers of HSV replication in host cells, fold increase, host cell viability; AID 1956, 2009; maximum fold increase; 220,000 tested, 0.005% active; HSV replication augmentation in cells;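 active = peak rise of 1.5-fold or more in the series; tested in PC3 cells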;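 also: first round at 10 µM; read as green reporter fluorescence; hits show the peak of a series up to 25 µM; 1 = signal of infected wells without compound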
RGS16-Gao HTS – modulators of RGS16 binding to Galphao, primary screen, biochemical, human proteins, multiplexed bead flow cytometry | Regulator of G-protein signaling 16 (Homo sapiens) + Guanine nucleotide-binding protein … | bead-based flow cytometry RGS16-Galphao binding, fluorescence; actives lie on both sides | binding response (% of control), % at 10 µM | 220,000 tested, 0.38% active | AID 1441, 2008;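 active = below 25% or above 175%, edge rows of some plates excepted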;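 also: Galphao activated by GDP with aluminum fluoride before binding; 100% = wells without compound and 0% = beads without RGS; some results beyond the cut were filed as inactive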
Target sequence (O15492 whole entry, looked up): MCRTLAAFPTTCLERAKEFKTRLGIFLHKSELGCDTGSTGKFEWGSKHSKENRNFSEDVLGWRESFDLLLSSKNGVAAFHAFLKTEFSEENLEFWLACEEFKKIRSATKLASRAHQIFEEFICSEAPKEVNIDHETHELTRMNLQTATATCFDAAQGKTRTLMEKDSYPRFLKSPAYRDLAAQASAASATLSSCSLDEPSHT
Target sequence (P09471 whole entry, looked up): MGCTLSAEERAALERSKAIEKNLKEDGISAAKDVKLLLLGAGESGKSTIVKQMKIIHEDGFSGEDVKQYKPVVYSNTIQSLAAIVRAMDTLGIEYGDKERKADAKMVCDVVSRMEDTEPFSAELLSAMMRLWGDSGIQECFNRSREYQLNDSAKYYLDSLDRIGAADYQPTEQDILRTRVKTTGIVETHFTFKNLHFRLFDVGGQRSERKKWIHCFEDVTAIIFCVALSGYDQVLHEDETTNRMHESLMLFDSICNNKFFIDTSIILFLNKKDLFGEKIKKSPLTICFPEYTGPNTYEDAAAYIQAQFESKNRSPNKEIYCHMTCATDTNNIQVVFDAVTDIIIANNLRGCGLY
INS promoter inh cell count – recorded beside INS promoter inh, whose call it bears; normalized cell count, %; measured here: cell count, toxicity; reference of the scale not given here;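 cells exposed to compound for 48 h; stained nuclei by imaging scaled within each plate; lower means fewer cells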
HSV replic up primary fold – recorded beside HSV replic up, whose call it bears; fold increase; compound at 10 µM; measured here: primary screen fold increase 10 uM; tested in PC3 cells;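 GFP signal in the first replicate; 1 = infected wells without compound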
* hit, by the source's call; i = inactive; · = no result given; & = joins results of further samples.

SMILES	INS promoter inh	INS promoter inh cell count	PKD1 kinase inh	GALR2 ag	HSV replic up	HSV replic up primary fold	RGS16-Gao HTS
CCOC(=O)C1CCN(C(=O)c2cn(CCOC)c(=O)c3c2c2ccccc2n3C)CC1	·	·	-8	-3.3	i	1.4	95
Cc1[nH]c2ccc(OC(=O)N3CCOCC3)cc2c1C(=O)OC(C)C	-46	114	0	-2.9	i	0.83	101
CC1(C)Cc2noc(N)c2C(C)(C)N1OC(=O)c1cccs1	-15	31	-8	-2.3	i	0.98	100
CSc1ccc(CCNC(=O)c2cc(C)nn2-c2ccccc2)cc1	·	·	·	·	i	0.9	103
COC(=O)c1ccc(N)nc1	·	·	7	·	i	0.91	92
COc1ccc(-c2nnc(N3CCC(C)CC3)c3ccccc23)cc1	-67	102	9	-1.9	·	·	100
O=S1(=O)N=C(Nc2nncs2)c2ccccc21	18	110	-3	-1.4	i	1.2	100
O=C(C1CCC(CNc2c(N3CCCCC3)c(=O)c2=O)CC1)N1CCCCC1 (centres undefined)	·	·	-1	·	i	0.91	104
COc1nc(NCc2ccco2)nc(N2CCC(C)CC2)n1	·	·	-1	-1.3	i	0.88	105
CC(C)CC(=O)Nc1ccc2ccccc2c1	·	·	-6	·	i	1.1&0.88	83&89
COc1ccc(C(=O)Nc2ccc(N3CCN(C(=O)c4ccccc4)CC3)cc2)cc1[N+](=O)[O-]	·	·	8	·	i	0.83	110
Cc1c(C(=O)NCCSCc2cccc(C(F)(F)F)c2)cnn1-c1ccc(Cl)cc1	·	·	·	·	i	0.99	102
CC1=CC(C)(C)NC(=S)N1NC(=O)c1ccccc1Cl	·	·	·	·	i	0.86	111
CN=C(Nc1cc(Cl)ccc1Cl)SC1CC(=O)N(c2ccc(C(=O)OC)cc2)C1=O (centres undefined)	12	106	-1	-2.4	i	1	29
Cc1cc(C)n(C(C)n2nc(C)cc2C)n1	57	121	-8	0.0	i	0.75	92
CC1CCN(c2nc3ccccc3n2CC(=O)c2ccccc2)CC1	-55	124	-2	·	i	1.1	108
C=C(C)c1cccc(C(C)(C)NC(=O)NCc2ccc(OC)c(OC)c2)c1	·	·	-4	-1.4	i	1.2	97
Cc1ccc(N2CN=C(c3ccccc3)NC2=S)cc1	11	79	38	-2.0	i	0.79	98
COc1ccc(-c2nc(CS(=O)CC(=O)NCCCN3CC(C)CC(C)C3)c(C)o2)cc1OC (centres undefined)	7	189	-6	-3.0	i	0.91	103
CC1CC(C)CN(C(=O)c2ccc3c(c2)N(Cc2ccccc2)CCS3)C1 (centres undefined)	·	·	16	-1.3	i	1.3	95
COC1(OC)N=C(N)C2(C#N)C(c3ccccc3)NC(C)=CC12C#N (centres undefined)	27	68	-7	-0.3	i	0.86	101
COc1ccc(OC)c(N/C(C)=C/C(=O)c2ccc(C)o2)c1	·	·	-1	-3.6	i	0.74	115
COc1ccc(-c2nc3ccccc3c(=O)n2CCOc2cccc(C)c2C)cc1	·	·	0	-0.1	i	0.96	103
C=CCn1c(COc2ccccc2-c2ccccc2)nnc1SCC(=O)NC(=O)NCc1ccco1	11	103	-4	-1.1	i	0.93	96
Cc1ccc(N2C(S)=C(C#N)C(=O)NC2c2ccco2)cc1 (centres undefined)	31	87	-9	·	i	0.76	95
c1ccc2nc3c(nc2c1)c1ccccc1n3CCN1CCOCC1	61	34	1	0.0	i	0.87	187
CCN=C1SC(CC(=O)Nc2ccccc2OCC)C(=O)N1CC (centres undefined)	i	29	1	-1.2	i	1	89
COc1ccc2oc(C(=O)Nc3nc4ccccc4[nH]3)c(C)c2c1	·	·	·	·	i	0.95	93
N#Cc1ccc(C(=O)Nc2ccc(S(=O)(=O)NC3=NCCCCC3)cc2)cc1	30	95	6	-2.2	i	0.91	98
COCCNC(=O)C(=O)NNC(=O)CCc1ccccc1	·	·	-6	·	i	0.93	100
O=S(=O)(c1ccc(Cl)cc1)c1nc(-c2ccco2)oc1N1CCOCC1	·	·	·	·	i	0.94	100
CCOC(=O)c1cc(C)n(-c2ccc(OC)c(OC)c2)c1C	-39	102	1	-2.7	i	1	104
COC(=O)c1ccc(-c2ccco2)n1Cc1ccccc1Cl	-10	86	1	-3.8	i	1	57
O=C(Nc1cccc(C(=O)O)c1)/C(=C\c1ccccc1)NC(=O)c1ccccc1	29	76	-4	·	i	1	97
Cc1ccc(C)c(NC(=O)c2oc(=O)c3ccccc3c2-c2ccccc2)c1	11	174	6	1.7	i	0.96	111
CC1CCCCC1NCc1cccc([N+](=O)[O-])c1 (centres undefined)	25	77	-5	·	i	1	99
N#Cc1nc(-c2ccc(OCc3ccccc3)cc2)oc1NCc1cccnc1	-43	112	1	-1.1	i	0.83	100
COc1ccc(C(=O)Nc2cc(C(F)(F)F)ccc2Cl)cc1OC	23	98	2	-3.3	i	0.93	108
Cc1cc2c(ncn2C)c(NS(=O)(=O)c2ccccc2Cl)c1C	-17	81	-9	-0.5	i	0.85	106
Cc1cc2oc(=O)c3c(c2cc1OCc1nn[nH]n1)CCCC3	·	·	-6	-0.7	i	0.94	92
COC(=O)c1c(-c2ccc(C)cc2)csc1NC(=O)Cc1ccc(OC)c(OC)c1	-21	67	6	-0.7	·	·	154
Cc1c(Br)c([N+](=O)[O-])nn1CC(=O)Nc1ccc(Cc2ccncc2)cc1	19	131	0	-1.0	i	0.78	102
C=CCN1C(=O)CN=C1Nc1cc(C)ccc1C	-55	156	-4	-1.8	i	1.1	100
Cc1cccc(NC(=O)CSc2nnc(CNC(=O)c3ccc(S(=O)(=O)N(C)C)cc3)n2-c2ccccc2)c1	50	94	3	0.6	i	0.89	108
CN1CCN(S(=O)(=O)c2cccc(C(=O)NC3CCCc4ccccc43)c2)CC1 (centres undefined)	·	·	-12	-1.4	·	·	104
Cc1ccc(NC(=O)CN2CCc3ccccc3C2)cc1	-16	141	-3	-2.2	i	1.1	102
COc1cccc(CC(=O)N2CCN(c3ccccc3[N+](=O)[O-])CC2)c1	-83	41	-4	·	i	1.1	137
Cc1ccc(C(=O)OCCc2c(C)[nH]n(-c3ccccc3)c2=O)cc1	36	108	4	-1.3	i	1.1	101
CC(C)(C)c1[nH]nc2c1C(c1ccco1)C(C#N)=C(N)O2 (centres undefined)	15	149	-5	·	i	0.98	99
CCn1c(SCC(=O)NC2CCCCC2)nnc1-c1cc2cccc(OC)c2o1	-3	142	-8	-1.2	i	0.87	98
Cc1ccnc(NC(=O)COC(=O)C23CC4CC(CC(C4)C2)C3)n1	·	·	·	·	i	1.1	93
Cc1c2c(n3c(nc4ccccc43)c1C#N)N(c1ccccc1)CC2	-25	123	1	1.2	i	0.8	96
COc1ccc(OC)c(NC(=O)CSc2nncc3ccc(OC)c(OC)c23)c1	·	·	·	·	i	1.1	102
CCCCCOC(=O)c1ccc(NC(=O)c2ccco2)cc1	·	·	-8	-1.4	·	·	103
Cc1cc(N2CCOCC2)nc(SCC(=O)OCc2ccccc2)n1	·	·	-7	·	i	0.95	101
COc1cccc(NC(=S)N(CCCN2CCCC2)Cc2cccn2Cc2ccc(Cl)cc2)c1	·	·	-5	·	i	0.77	91
C=C(c1cccc2ccccc12)P(=O)(O)O	-29	73	-7	-4.0	i	1.1	102
Nc1nc(N)c(N=Nc2ccc(C(=O)O)cc2)c(N)n1	·	·	·	·	i	1	107
CCC(=O)N1CCc2cc(S(=O)(=O)CCC(=O)N3CCc4ccccc4C3)ccc21	-83	160	0	-0.6	i	0.97	110
CCOC(=O)c1ccc(NC(=O)N2CC(C)OC(C)C2)cc1 (centres undefined)	-31	112	-6	-1.8	i	0.93	103&132
Next part:
SMILES	INS promoter inh	INS promoter inh cell count	PKD1 kinase inh	GALR2 ag	HSV replic up	HSV replic up primary fold	RGS16-Gao HTS
CCOc1cccc(/C=C/c2ccc3ccccc3n2)c1OC(C)=O	·	·	-2	·	i	0.77	102
CCc1c(O)nc(SCC(=O)Nc2ccccc2OC)[nH]c1=O	-67	94	2	-1.8	i	1	102
Cc1ccccc1OCc1nc2ccccc2c(=O)n1/N=C/c1c[nH]c2ccccc12	-14	86	6	0.7	i	0.66	99
COc1ccc(S(=O)(=O)NC(CC(=O)NCc2ccc3c(c2)OCO3)c2ccco2)cc1 (centres undefined)	·	·	-1	-2.2	i	0.87	97
Cn1nnnc1SCC(=O)Nc1ccccc1C(N)=O	·	·	1	·	i	0.99	101
CCN(CC)S(=O)(=O)c1cccc(NC(=O)c2ccccc2Br)c1	77*	33*	-4	·	i	1	95
C/C(=N\NC(=O)c1ccc([N+](=O)[O-])cc1)c1cccc([N+](=O)[O-])c1	·	·	-1	·	i	0.98	99
Cc1cccc(C)c1NC(=O)CN(C)c1ccc(C(F)(F)F)cn1	-81	121	1	-1.4	i	0.88	95
O=C(NN1C(=O)/C(=C/c2cccs2)SC1=S)c1cccnc1	·	·	·	·	i	1.2	104
Cn1c(=O)c2c(nc(CN3CCN(C(=O)c4ccco4)CC3)n2Cc2ccc(F)cc2)n(C)c1=O	40	103	-4	-1.7	i	0.63	101
COc1cccc(-c2nc(-c3ccc(NC(=O)Cc4ccccc4OC)cc3)no2)c1	67	86	-7	-1.6	i	0.98	70
O=C(c1ccc2ccccc2c1)C1CCCN(C(=O)c2cnccn2)C1 (centres undefined)	·	·	·	·	i	0.75	100
CC1=CN2C(=N)/C(=C/c3ccc(Sc4ccc(C)cc4)o3)C(=O)N=C2S1	21	110	2	-1.1	i	1	112
CCN1CCc2c(sc(NC(=O)c3ccc(S(=O)(=O)N4CCOCC4)cc3)c2C(=O)OC)C1	19	39	9	1.3	·	·	101
c1coc(-c2nc3nc4ccccc4nc3n2CC2CCCO2)c1 (centres undefined)	-42	131	4	1.7	·	·	101
CCOC(=O)c1cnc(SCC(=O)Nc2cc(OC)cc(OC)c2)nc1N	·	·	11	-2.5	i	0.97	93
CC1=NNC(=O)C1CCC(=O)N/N=C\c1ccc(Cl)c(Cl)c1 (centres undefined)	0	124	-1	·	i	0.98	96
CCOC(=O)C1CCCN(C(=O)Cn2nc(Cc3cccnc3)c3ccccc3c2=O)C1 (centres undefined)	·	·	3	-2.9	i	0.95	109
COc1ccccc1C(=O)C1CCCN(C(=O)CCc2ccccn2)C1 (centres undefined)	·	·	2	·	i	0.94	91
O=C(CNCc1ccccc1Cl)Nc1ccccc1N1CCCCC1	·	·	-5	·	i	1	104
COc1ccc(N(Cc2ccccc2)S(=O)(=O)c2cccc(C(=O)NC3=NCCS3)c2)cc1	-21	140	0	1.5	i	1	97
O=C(Nc1cccc(Cl)c1)NC1CC2CCC(C1)N2Cc1ccco1 (centres undefined)	·	·	0	·	i	0.67	102
Cc1c(C(=O)NCCSCc2ccccc2)cccc1[N+](=O)[O-]	·	·	-9	·	i	1	104
COc1ccc(OCCNC(=O)/C=C/c2ccccc2)cc1	58	106	-12	·	i	0.97	115
CC1CCCC(NC(=O)CC2Nc3ccccc3NC2=O)C1C (centres undefined)	-23	67	-6	-1.1	·	·	107
COc1ccc(NC(=S)NC(=O)c2ccccc2Cl)cc1	29	134	4	·	i	1	105
COC(=O)[C@@H]1CCCN1C(=O)CCc1nnc(CCC2CCCCC2)o1	30	217	-9	·	i	1	107
C/C(=N\NC(=O)Cc1cc(=O)[nH][nH]1)c1cccc([N+](=O)[O-])c1	-27	70	-4	-1.0	i	0.97	57

Fetched by compound from above (6):
SMILES	INS promoter inh	INS promoter inh cell count	PKD1 kinase inh	GALR2 ag	HSV replic up	HSV replic up primary fold	RGS16-Gao HTS
O=C(Nc1cccc(Cl)c1)NC1CC2CCC(C1)N2Cc1ccco1 (centres undefined)	·	·	0	·	i	0.67	102
CC1CCCC(NC(=O)CC2Nc3ccccc3NC2=O)C1C (centres undefined)	-23	67	-6	-1.1	·	·	107
COC(=O)[C@@H]1CCCN1C(=O)CCc1nnc(CCC2CCCCC2)o1	30	217	-9	·	i	1	107
COc1ccc(NC(=S)NC(=O)c2ccccc2Cl)cc1	29	134	4	·	i	1	105
COc1ccc(OCCNC(=O)/C=C/c2ccccc2)cc1	58	106	-12	·	i	0.97	115
COc1ccc(N(Cc2ccccc2)S(=O)(=O)c2cccc(C(=O)NC3=NCCS3)c2)cc1	-21	140	0	1.5	i	1	97

High-throughput results: PubChem, several laboratories

Outcome played no part in choosing rows; about 1.3% have a hit in one of these screens.
